Screening results as filed in PubChem BioAssay.
Bst PK mod = pyruvate kinase (B. stearothermophilus) modulation | partly purified Bacillus stearothermophilus pyruvate kinase, luminescence ATP production; ribose 5-phosphate activator present at AC10 | Potency, µM | hit rate 1.2% among 51,000 | AID 361; in the data active means potency below about 11 µM; inconclusive means mostly about 12 µM to 25 µM; inactive means weaker than that;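 the screen sought inhibitors and activators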;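 further: potency means the concentration at half of the fitted maximal effect; scaled between full activation by ribose 5 phosphate and full inhibition by luteolin; about four in five hits inhibit and the cells do not say which; series up to 57 µM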
YjeE inh = YjeE (TsaE) inhibition, E. coli. purified YjeE, fluorescence polarisation of a bound ADP probe. Potency, µM. P0AF67. hit rate 0.05% among 71,000; active = well fitted falling curve; inconclusive = weaker or top-dose-only fall, or a rising curve; inactive = flat or poorly fitted curve;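 further: top concentration of the series not given in the record; excess ADP was the control for the full effect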
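Fluorescence polarization of a BODIPY Texas Red–ADP probe (2 uM) bound to purified YjeE (10 uM) was read after 15 min room-temperature incubation with compounds. Loss of polarization marks inhibitors; ADP serves as titrated control.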
* = called active by the depositor; i = inactive; ? = inconclusive; / = not tested or not shown; ! = repeats disagree. Not all compounds are listed; rates above refer to the full screens.

item	SMILES	Bst PK mod	YjeE inh
1	O=C(CN1C(=O)c2ccccc2S1(=O)=O)Nc1ccc(S(=O)(=O)N2CCCCCC2)cc1	>57	i
2	COc1ccccc1N1CCN(C(CNS(=O)(=O)c2cc(F)ccc2F)c2cccnc2)CC1 (stereo not drawn)	>57	i
3	CCCCN(C)Cc1c(C)[nH]c2ccc(OCC)cc2c1=O	/	i
4	COc1ccc(Cn2nnnc2C(c2ccc(C)cc2)N2CCN(C3CCCC3)CC2)cc1 (stereo not drawn)	>57	i
5	Cc1oc2c(CN(C)C)c(O)ccc2c(=O)c1-c1ccc2ccccc2n1	>57	i
6	OCCN1CCN(Cc2cccc(Oc3ccc(Cl)cc3)c2)CC1	/	i
7	Cc1ccc(N2C(=O)NC3(CCCCC3)C2=O)cc1	>57	i
8	COc1ccccc1N1CCN(Cc2nnnn2CCc2ccccc2)CC1	>57	i
9	O=c1[nH][nH]c(=O)c2cc([N+](=O)[O-])ccc12	/	i
10	CN(C)c1nc(-c2cccnc2)nc2ccccc12	/	i
11	CCN(CC(=O)NCCc1ccc(S(N)(=O)=O)cc1)Cc1nc2ccccc2c(=O)[nH]1	>57	i
12	Cc1cc(N)n(-c2ccccc2)n1	/	i
13	Nc1nonc1-c1noc(CCCOc2ccc(Cl)cc2Cl)n1	>57	i
14	COc1ccccc1-c1nc(SCc2ccccn2)n[nH]1	>57	i
15	COc1cc(OC)c(C2CC(=O)N3CN(c4ccccc4)CSC3=C2C#N)cc1OC (stereo not drawn)	>57	i
16	CS(=O)(=O)NCCOc1ccc(S(=O)(=O)N2CCCc3ccccc32)cc1	>57	i
17	CN1c2cccc3cccc(c23)N(C)C1(C)C	/	i
18	CCCCOc1ccc(C(=O)Nc2ccc(N3CCN(C(=O)C(C)C)CC3)cc2)cc1	>57	i
19	CCCOC(=O)c1c(-c2ccccc2)nc(CC)c(C(=O)SCC)c1CCC	/	i
20	Cc1cccc(OCC(=O)N2CCC(c3ccccc3)C2)c1 (stereo not drawn)	/	i
21	CC(=O)NCCn1c(SCC(=O)NCC2CCCO2)nc2ccccc2c1=O (stereo not drawn)	>57	i
22	COC(=O)CCCCCC(CCC(=O)OC)NC(C)=O (stereo not drawn)	/	i
23	CCOC(=O)c1cc2c(=O)n3cccc(C)c3nc2n(CCc2ccccc2)c1=N	>26	/
24	Cc1ccc2cccnc2c1	/	i
25	NC(=O)OC[C@H](O)COc1ccc(Cl)cc1	/	i
26	CC(NC(=O)c1ccc2c(c1)OCCO2)C(=O)O (stereo not drawn)	>57	i
27	COCCn1c(=S)[nH]c2cc(OC)c(OC)cc2c1=O	>57	i
28	Cn1nnnc1SCC(=O)Nc1ccc(Cl)cc1Cl	>57	i
29	Cc1cc(NC(=O)CSc2nnc3c(C)cc4cc(C)c(C)cc4n23)no1	>57	i
30	CCOC(=O)C1=C(C)NC(=O)NC1c1ccc(OCC(=O)Nc2ccccc2)c(OC)c1 (stereo not drawn)	/	i

(continued)
item	SMILES	Bst PK mod	YjeE inh
31	CCCCOC(=O)c1[nH]c(C)c(C(=O)OC)c1C	i	/
32	CCOC(=O)CSc1nc2c(sc3ccccc32)c(=O)n1CCCN1CCOCC1	>57	i
33	COc1ccccc1-c1cncnc1NCCN1CCOCC1	/	i
34	Cc1nnc(SCC(=O)Nc2ncc3c(n2)CCCC3=O)s1	>57	i
35	COc1ccc2c(c1)c1c(n2C(C)=O)C(OC(C)=O)=NCC1	>57	i
36	CC(C)=CC(=O)Nc1ccccc1Br	>57	i
37	Cn1c(CCN2CCCCC2)nc2cc(NS(=O)(=O)c3ccc(F)cc3)ccc21	>57	i
38	CCCCCC(=O)N(CN1C(=O)CCC1=O)c1ccccc1	>57	i
39	O=C1C2C(C(=O)N1CC1CCCO1)C1C=CC2C12CC2 (stereo not drawn)	/	i
40	Cn1cc(-c2nc3cnc(Oc4ccccc4)nc3n(C3CC3)c2=O)c2ccccc21	/	i
41	COc1ccccc1NC(=O)c1oc2ccc(C)cc2c1C	/	i
42	Cc1[nH]cnc1CSCCN	>57	i
43	CC1(C)Cc2nc3sc4c(=O)[nH]cnc4c3cc2CS1	>57	i
44	Cc1cc(=O)n(C)c(=O)n1CCCCCN1CCCC1	>57	i
45	CCN(CC)C(=O)CSc1ncnc2c(-c3cccs3)nsc12	/	i
46	COc1ccc(N(CC(=O)N2CCCC(C)C2)S(=O)(=O)c2c(C)nn(C)c2C)cc1 (stereo not drawn)	/	i
47	O=C(O)CC(NS(=O)(=O)c1cccc2nsnc12)c1ccc(F)cc1 (stereo not drawn)	>57	i
48	Cc1ccc(Cn2ncc3c(N4CCN(c5ccccc5C)CC4)ncnc32)cc1	>57	i
49	O=C(CSc1ccc2nnc(-c3ccncc3)n2n1)Nc1ccc2c(c1)OCCO2	/	i
50	CCOC(=O)c1cc2sccc2n1CC(=O)c1ccc2c(c1)OCCO2	>57	i
51	O=C(NCc1ccco1)c1cc(S(=O)(=O)N2CCOCC2)c(Cl)cc1Cl	>57	i
52	CCOc1cc(C#N)c(NC(=O)CSc2nnnn2-c2ccc(OC)cc2)cc1OCC	>57	i
53	O=C(CSc1nc(-c2ccncc2)nn1CC(=O)N1CCCCC1)NC1CCCC1	>57	i
54	CS(=O)(=O)Nc1ccc(C(=O)NCC2CCCO2)cc1 (stereo not drawn)	>57	i
55	COCCn1c(N2CCN(c3ccc(OC)cc3)CC2)nc2c1c(=O)n(C)c(=O)n2C	>57	i
56	Cc1cccc(NC(=O)Cn2cnc3c(cnn3-c3ccc(F)cc3)c2=O)c1C	/	i
57	COc1ccc(N2CCN(c3nc(NC(C)(C)C)nc(N4CCCCC4)n3)CC2)cc1	>57	i
58	C[C@@H](C(=O)NCCc1c[nH]c2ccccc12)[C@@H]1C[C@@]1(C)[C@@H](NC(=O)OCc1ccccc1)c1ccccc1	/	i
59	O=C(O)C1C2C=CC(C2)C1C(=O)NC1CCS(=O)(=O)C1 (stereo not drawn)	>57	i
60	O=S(=O)(c1cc(Cl)ccc1Cl)N1CCCCC1	?	i

Continuation:
item	SMILES	Bst PK mod	YjeE inh
61	O=C(CN1CCOCC1)Nc1c2c(nc3ccccc13)N(Cc1ccccc1)CC2	>57	i
62	Cn1c(CNC(=O)C(C)(C)C)nc2ccccc21	>57	i
63	CCOc1ccccc1N(CC(=O)O)S(=O)(=O)c1ccccc1	>57	i
64	CCOC(=O)N1CCC(NC(=O)C2=C(C)C(=O)OC23CCC(C)CC3)CC1 (stereo not drawn)	/	i
65	O=C(CCN1CCN(c2ccccc2F)CC1)Nc1ccccc1F	>57	i
66	COCCOC(=O)/C=C1/NC(=O)CS1	>57	i
67	CCCOc1ccccc1C1NC(=O)NC(C)=C1C(=O)OCCOCC (stereo not drawn)	>57	i
68	Cc1ccc(CSCCNS(C)(=O)=O)cc1	/	i
69	O=C(O)c1ccc(-n2nnnc2Oc2ccccc2C(=O)N2CCOCC2)cc1	>57	i
70	CC(c1ccco1)N(C(=O)c1cccs1)c1ccccn1 (stereo not drawn)	>57	i
71	Cc1cc(C)n(CC(=O)N2c3ccccc3Sc3ccccc32)n1	>26	/
72	COc1ccc(OC)c(-n2nnnc2SCC(=O)NCCc2ccccc2)c1	>57	i
73	O=C(Nc1ccccc1N1CCCCC1)c1ccccc1F	>57	i
74	CCOc1ccc(S(=O)(=O)N2CCN(C(=O)c3cccn3C)CC2)cc1	>57	i
75	OCCSCc1cc(Cl)cc(Cl)c1O	/	i
76	COc1ccccc1CN1CCCC2(CCN(C(=O)c3cc(C(F)(F)F)cc(C(F)(F)F)c3)CC2)C1	/	i
77	C/C(=N\O)c1ccccc1C(=O)O	/	i
78	Cc1cccc(-c2nnc(SCc3nc4ccccc4[nH]3)n2Cc2ccco2)c1	>57	i
79	N#Cc1c(NC(=O)CSc2n[nH]c(Cc3ccccc3)n2)oc(-c2ccccc2)c1-c1ccccc1	>57	i
80	Cc1ccc(OCc2ccoc2C(=O)O)cc1C	/	i
81	Cc1cc(C)c2nc3s/c(=C/c4ccc5c(c4)n(C)c(=O)n5C)c(=O)n3c2c1	>57	i
82	O=C(Nc1ccccc1Cl)c1cc(S(=O)(=O)N2CCCC(C(=O)O)C2)ccc1F (stereo not drawn)	>57	i
83	CCCCc1n[nH]c2c1C(=O)CC(C)(C)C2	>57	i
84	CC(=O)c1cc2c(cc1NC(=O)c1cc3nc(C(C)C)cc(C(F)(F)F)n3n1)OCO2	>57	i
85	c1ccc(Nc2ncnc3ccc(-c4ccc5c(c4)OCO5)cc23)cc1	/	i
86	O=C1OC(N2CCN(C(=O)C3CCCO3)CC2)c2ccccc21 (stereo not drawn)	>57	i
87	C[C@@H](N1CCOCC1)[C@@](O)(c1ccccc1)c1ccccn1	/	i
88	O=S(=O)(c1ccccc1)N1CCC[C@@]2(CCN(c3ccccc3)C2)C1	/	i
89	COCCN(C(=O)Cc1cccs1)c1nnc(-c2cccnc2)s1	>57	i
90	O=C(O)CCCC(=O)N1CCN(c2cccc(Cl)c2)CC1	/	i

From entry 61 up to 64, as listed above:
item	SMILES	Bst PK mod	YjeE inh
61	O=C(CN1CCOCC1)Nc1c2c(nc3ccccc13)N(Cc1ccccc1)CC2	>57	i
62	Cn1c(CNC(=O)C(C)(C)C)nc2ccccc21	>57	i
63	CCOc1ccccc1N(CC(=O)O)S(=O)(=O)c1ccccc1	>57	i
64	CCOC(=O)N1CCC(NC(=O)C2=C(C)C(=O)OC23CCC(C)CC3)CC1 (stereo not drawn)	/	i

Continued:
item	SMILES	Bst PK mod	YjeE inh
91	COc1ccc2c(c1)CCC(C)N2S(=O)(=O)c1ccc(C2CNC(=O)C2)cc1 (stereo not drawn)	>57	i
92	OCCNc1nc(Nc2ccccc2)nc(Nc2ccccc2)n1	/	i
93	O=C(NCC1COc2ccccc2O1)c1c[nH]c2ccc(S(=O)(=O)N3CCOCC3)cc2c1=O (stereo not drawn)	>57	i
94	Cc1ccc(NC(=O)CN2CC(C)SC2=NC2CCCCC2)cc1 (stereo not drawn)	>57	i
95	COCCOc1nc2c(c(=O)n(C)c(=O)n2C)n1CCc1ccccc1	>57	i
96	CN(C)CCNC(=O)c1c(O)c2c([nH]c1=O)CCCC2	>57	i
97	CCOC(=O)Cn1c2ccc(OC)cc2c2nc3ccccc3nc21	>57	i
98	COc1cc2cc(C(c3nnnn3Cc3ccc(F)cc3)N3CCCCCC3)c(=O)[nH]c2cc1OC (stereo not drawn)	>57	i
99	CCCn1nc(-c2nnc(-c3ccc(C)c(C)c3)o2)c2ccccc2c1=O	>57	i
100	O=c1cc(-c2ccccc2O)oc2c1ccc1ccccc12	/	i
101	COC(=O)CCCCC(=O)C1C(=O)CC(C)(C)C(C(=O)OC)C1=O (stereo not drawn)	/	i
102	CN(C)C(=O)N1CCN(C(=O)c2ccccc2Sc2ccccc2C#N)CC1	>57	i
103	O=c1/c(=C/c2ccc(CNS(=O)(=O)c3ccccc3)o2)sc2n1CCN=2	>57	i
104	Cc1c(Cl)cccc1NC(=O)CC1SCCNC1=O (stereo not drawn)	>57	i
105	Cc1ccc(NC(=O)N2CCCC2C(=O)NCCc2ccccc2)cc1 (stereo not drawn)	>57	i
106	COC(=O)c1cnn2c(C)c(Cc3cccc(F)c3)c(C)nc12	/	i
107	COC(=O)c1ccc(C(NC(=O)OCc2ccccc2)/C(C)=C/[C@@H](C)C(=O)NCc2cc(C)on2)cc1 (stereo partly drawn)	/	i
108	COc1ccccc1-c1cc(C(=O)Nc2cccnc2)no1	i	i
109	CCCC(=N)C1=C(O)CC(CC(C)SCC)CC1=O (stereo not drawn)	/	i
110	COCCn1c(N)c(C(=O)NCC2CCCO2)c2nc3ccccc3nc21 (stereo not drawn)	>26	/
111	N#CC(C#N)=c1ccc2c(c1)N1C3=C(CCCC3)CC3CCCCC31N=2 (stereo not drawn)	/	i
112	COCC(=O)N1CCC2(CC1)CN(c1ccccn1)C2	/	i
113	Cc1ccc(CNC(=O)C2CCN(S(=O)(=O)c3c(C)noc3C)CC2)cc1	>57	i
114	Cc1cc2c(C(C)C)c(O)c(O)c(C=O)c2c(O)c1-c1c(C)cc2c(C(C)C)c(O)c(O)c(C=O)c2c1O	/	100µM*!
115	Cc1ccc(-c2nnn(CC(=O)N(CCO)C(C(=O)NC(C)(C)C)c3ccncc3)n2)cc1 (stereo not drawn)	>57	i
116	N#CCSc1nnc2ccc3ccccc3n12	>57	i
117	COc1ccc(Cl)cc1C(=O)Nc1ccccc1N1CCN(C(=O)C(C)C)CC1	>57	i
118	O=C(Cn1c(=O)oc2ccccc21)N1CCN(c2ccc(N3CCOCC3)nn2)CC1	/	i
119	O=C(Nc1ccc2c(c1)nc1n2CCCCC1)c1cc(S(=O)(=O)N2CCOCC2)ccc1Cl	>57	i
120	CC1=C(C(=O)OCc2ccc3c(c2)OCO3)C(c2ccc(Cl)cc2)NC(=O)N1 (stereo not drawn)	/	i

(list continues)
item	SMILES	Bst PK mod	YjeE inh
121	CC1(C(=O)NC2CCCC2)CCC(=O)N1Cc1ccc2c(c1)OCO2 (stereo not drawn)	>57	i
122	Cc1cccc(OCCC(=O)OCC(=O)N2CCc3ccccc32)c1	>57	i
123	COc1ccc(-c2cc3nc(C4CCN(C(=O)OC(C)(C)C)CC4)c(C(=O)O)cn3n2)cc1	>57	i
124	CC(C)c1ccc2c(c1)C(=O)NC(C)(C)C2	/	i
125	c1ccc(CNc2ncnc3c2cnn3-c2ccccc2)cc1	>57	i
126	C=C(C)COc1ccc2c(C)c(C)c(=O)oc2c1OCC(=C)C	>57	i
127	Nc1nc(CSc2nc3ccccc3s2)nc(N2CCCCC2)n1	>57	i
128	O=C(NC1c2ccccc2-c2ccccc21)N1CCCCC1	/	i
